Ecoli rRNA inh: reduced GFP signal of wild-type E. coli, primary screen, bacterial rRNA inhibitor project, GFP/RFP fluorescence, OD600, single point. E. coli WT GFP vs humanized-ribosome RFP mutants, 24 h; hits give low values; DMSO median 0, no signal -100. GFP signal change (wild-type ribosome), % (test concentration not listed). 350,000 compounds, 1.6% hits. AID 720706, 2013;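 active = significant combined selectivity score with lowered wild-type GFP, culture density cut under 30%, mutant RFP and density less affected; inactive = any of these conditions unmet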; note: one replicate is shown; some compounds called inactive have numbers as strong as hits
Ecoli rRNA inh OD600: further read-out of Ecoli rRNA inh, marked with its call; OD600 change, %; measured here: OD600 growth;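 optical density of the mix in the first replicate; 0 = DMSO median and -100 = no signal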
Ecoli rRNA inh RFP: also measured in Ecoli rRNA inh; calls as there; RFP signal change, %; measured here: RFP humanized mutant strains;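 first replicate; 0 = DMSO median and -100 = no signal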
Active calls of the source: *; & = joins results of further samples. Not all compounds are listed, so the mix of outcomes need not match the whole.

Structure	Ecoli rRNA inh	Ecoli rRNA inh OD600	Ecoli rRNA inh RFP
Cn1cnc(S(=O)(=O)N2CC[C@@H]3[C@H]2c2cc(C#Cc4ccccc4)ccc2N[C@@H]3CO)c1	-15	-39	-0.3
O=C(C1CC1)N1CCCCN2[C@H](C1)[C@@H](c1ccc(C#CC3CCCC3)cc1)[C@@H]2CO	-58	-72	-11
COc1cccc(NC(=O)N(C)C[C@H]2OCc3ccccc3-c3ccccc3C(=O)N([C@H](C)CO)C[C@@H]2C)c1	0	-4	-1.4
CC(C)NC(=O)Nc1ccc2c(c1)C(=O)N([C@H](C)CO)C[C@H](C)[C@H](CN(C)S(=O)(=O)c1cccs1)OCCCC[C@H](C)O2	-5	-5	-0.4
O=C(C[C@H]1CC[C@@H]2[C@H](COC[C@H](O)CN2C(=O)c2ccccc2)O1)Nc1ccc(-c2ccccc2)cc1	-43	-68	6.6
C[C@H]1CN([C@@H](C)CO)C(=O)Cc2cc(NC(=O)Nc3ccccc3)ccc2O[C@@H]1CN(C)Cc1ccc(C(=O)O)cc1	0	5	2.8
CC(C)(C)[S@@](=O)N1Cc2cc(C(=O)NCc3ccc4c(c3)OCO4)nc(-c3cccc(-c4ccncc4)c3)c2[C@H]1CCO	-2	-8	6.6
O=C(C[C@@H]1C[C@@H]2c3cc(NC(=O)NC4CCCC4)ccc3O[C@@H]2[C@@H](CO)O1)NCc1cc(F)ccc1F	0	-3	1.1
C/C=C/c1ccccc1[C@@H]1[C@@H](C#N)N(C(=O)c2cccnc2)[C@H]1CO	5	-3	0.3
COCCCNC(=O)c1ccc2nc([C@@H]3O[C@H](CO)[C@H](O)[C@H](O)[C@H]3O)[nH]c2c1	6	5	0.6
Cc1noc(C)c1NC(=O)N(C)C[C@@H]1Oc2ccc(NC(=O)C3CC3)cc2C(=O)N([C@@H](C)CO)C[C@@H]1C	1	2	-0.8
C[C@H](CO)N1C[C@H](C)[C@H](CN(C)S(C)(=O)=O)Oc2cc(C#Cc3ccc(F)cc3)ccc2S1(=O)=O	-3	-10	2.5

Structure	Ecoli rRNA inh	Ecoli rRNA inh OD600	Ecoli rRNA inh RFP
CC(C)N(C(=O)Cn1cc(S(=O)(=O)CC(=O)NCCc2ccccc2)c2ccccc21)C(C)C	-9	-7	4.4
COc1ccc(S(=O)(=O)Nc2ccc3c(c2)C(=O)N([C@H](C)CO)C[C@H](C)[C@H](CN(C)S(=O)(=O)c2c(C)noc2C)OCCCC[C@H](C)O3)cc1	3	4	-0.4
C[C@H](CO)N1C[C@H](C)[C@@H](CN(C)Cc2ccc3c(c2)OCO3)Oc2ccc(NS(=O)(=O)c3ccc(F)cc3)cc2CC1=O	-5	-41	1.2
C[C@H](CO)N1C[C@H](C)[C@@H](CN(C)Cc2ccccc2)Oc2ncc(-c3ccccc3)cc2C1=O	-2	6	-3.3
CCC(=O)N[C@@H]1C=C[C@H](CC(=O)NCc2ccccc2OC)O[C@H]1CO	5	2	-3.7
CO[C@H]1CN(C)C(=O)c2ccc(NS(C)(=O)=O)cc2OC[C@H](C)N(CC2CC2)C[C@H]1C	1	1	0.4
CCCC(=O)Nc1ccc2c(c1)C(=O)N(C)C[C@H](OC)[C@H](C)CN(C(C)=O)[C@@H](C)CO2	0	7	-0.2
CCCCc1c(-c2ccc(F)cc2)ncn1CCc1ccccc1OC	-61	-78	-21
C[C@H]1CN([C@@H](C)CO)S(=O)(=O)c2ccc(-c3ccccc3)cc2O[C@@H]1CN(C)Cc1ccccn1	-52	-70	-14
C[C@@H]1CN([C@H](C)CO)C(=O)c2cc(C#Cc3ccccc3F)cnc2O[C@@H]1CN(C)S(C)(=O)=O	-1	-2	3.3
Cc1ccccc1-c1ccccc1[C@H]1[C@@H](C#N)N(C(=O)c2cccc(F)c2)[C@@H]1CO	-9	-57	10.0
COc1ccccc1NC(=O)N1CC[C@@H]2[C@@H](CO)N(C)c3ccc(-c4ccc(F)cc4)cc3[C@@H]21	-3	-1	4.7

Structure	Ecoli rRNA inh	Ecoli rRNA inh OD600	Ecoli rRNA inh RFP
Cc1ccc(S(=O)(=O)N[C@H]2CCC[C@@H]2O)cc1	5	7	0.9
C[C@H]1CN([C@@H](C)CO)C(=O)c2cc(C#CC3(O)CCCC3)cnc2O[C@@H]1CN(C)C(=O)Cc1ccncc1	3	4	-3.9
O=C(Nc1ccccc1F)N[C@@H]1CC[C@@H](CCNC(=O)C2CCCC2)O[C@H]1CO	2	2	-0.9
C[C@@H]1CN([C@@H](C)CO)C(=O)Cc2cc(NC(=O)Nc3cccc4ccccc34)ccc2O[C@H]1CN(C)S(=O)(=O)c1cn(C)cn1	-4	-12	1.9
COCC#Cc1ccc2c(c1)O[C@H](CN(C)Cc1ccc3c(c1)OCO3)[C@@H](C)CN([C@@H](C)CO)S2(=O)=O	-26	-59	13
CCCC(=O)N1CC2(C1)CN(C(=O)Cc1ccccn1)[C@H](CO)c1[nH]c3cc(OC)ccc3c12	1	5	-3.4
C[C@@H]1CN([C@H](C)CO)C(=O)c2cccc(NS(C)(=O)=O)c2O[C@@H]1CN(C)C(=O)NC1CCCCC1	1	3	-0.3
C[C@@H]1CN([C@H](C)CO)C(=O)Cc2cc(NS(=O)(=O)c3cccs3)ccc2O[C@H]1CN(C)CC1CC1	1	-2	1.0
Cc1cccc(C)c1-n1nnnc1C1(C)CCC(=O)N1CCCN1CCOCC1 (stereo unspecified)	21	14	0.4
CN1C(=O)c2cc(NC(=O)c3ccc(F)cc3)ccc2OC[C@H]2O[C@H](CC(=O)NCC3CCCCC3)CC[C@H]21	-5	-26	-0.5
CCC(=O)NC[C@H]1[C@H](c2ccc(C3=CCCC3)cc2)[C@@H](CO)N1C(=O)C1CC1	-2	-4	0.1
Cc1ccc(S(=O)(=O)NCC[C@@H]2CC[C@@H](NC(=O)c3cccc(F)c3)[C@@H](CO)O2)cc1	3	10	-0.4

Some of the entries above in another layout.
C[C@@H]1CN([C@H](C)CO)C(=O)Cc2cc(NS(=O)(=O)c3cccs3)ccc2O[C@H]1CN(C)CC1CC1
  Ecoli rRNA inh = 1
  Ecoli rRNA inh OD600 = -2
  Ecoli rRNA inh RFP = 1.0
Cc1cccc(C)c1-n1nnnc1C1(C)CCC(=O)N1CCCN1CCOCC1 (stereo unspecified)
  Ecoli rRNA inh = 21
  Ecoli rRNA inh OD600 = 14
  Ecoli rRNA inh RFP = 0.4
CN1C(=O)c2cc(NC(=O)c3ccc(F)cc3)ccc2OC[C@H]2O[C@H](CC(=O)NCC3CCCCC3)CC[C@H]21
  Ecoli rRNA inh = -5
  Ecoli rRNA inh OD600 = -26
  Ecoli rRNA inh RFP = -0.5

Next part:
Structure	Ecoli rRNA inh	Ecoli rRNA inh OD600	Ecoli rRNA inh RFP
O=C(C[C@H]1CC[C@@H](NC(=O)c2ccncc2)[C@H](CO)O1)NCC1CC1	0	3	1.1
O=C(Nc1cccc(F)c1)N[C@@H]1CC[C@H](CCn2cc(Cc3ccccc3)nn2)O[C@@H]1CO	-2	-6	2.8
C[C@@H](NC(=O)C[C@@H]1CC[C@@H](NC(=O)C2CC2)[C@H](CO)O1)c1ccccc1	1	0	-0.2
COCCNC(=O)C[C@H]1CC[C@H]2[C@@H](COc3ccc(NC(C)=O)cc3C(=O)N2C)O1	2	2	-1.4
C[C@@H](NC(=O)C[C@H]1CC[C@@H]2[C@H](COC[C@H](O)CN2C(=O)Nc2cc(Cl)cc(Cl)c2)O1)c1ccccc1	-47	-63	15
COCCNC(=O)C1(C)CCCN(C(=O)c2cc(F)ccc2C)C1 (stereo unspecified)	15	14	2.5
Cc1ccc(S(=O)(=O)N(C)C[C@H]2OCCCC[C@H](C)Oc3ccc(NC(=O)c4ccccc4)cc3C(=O)N([C@@H](C)CO)C[C@H]2C)cc1	-2	3	2.3
COc1ccc(S(=O)(=O)N(C)C[C@H]2OCCCC[C@@H](C)Oc3ccc(NC(=O)CCC(F)(F)F)cc3C(=O)N([C@@H](C)CO)C[C@H]2C)cc1	-5	-2	1.2
C[C@H]1CN([C@@H](C)CO)C(=O)c2cc(NC(=O)C3CC3)ccc2O[C@H]1CN(C)S(=O)(=O)c1ccc(F)cc1	1	1	3.5
C[C@@H](NC(=O)[C@H]1[C@H](CO)[C@H]2Cn3c(cccc3=O)[C@@H]1N2C(=O)C1CCC1)c1ccccc1	-1	5	-1.3
O=C(C[C@@H]1CC[C@@H](NS(=O)(=O)c2ccccc2)[C@H](CO)O1)N1CCC(Cc2ccccc2)CC1	-3	-25	2.4
O=C(C[C@H]1C=C[C@H](NC(=O)c2ccccn2)[C@@H](CO)O1)NCc1cc(F)cc(F)c1	0&9	2&6	1.1&5.0

Structure	Ecoli rRNA inh	Ecoli rRNA inh OD600	Ecoli rRNA inh RFP
CCC(=O)N1C[C@@H](O)COC[C@@H]2O[C@H](CC(=O)N3CCCCC3)CC[C@H]21	-1	-8	-1.7
C1=C[C@H]2CCCN3CC[C@@H]([C@@H]2[C@]32CO2)[C@H]1CCOCc1ccccc1	3	1	5.6
C[C@H]1CN([C@@H](C)CO)C(=O)c2cccc(NS(=O)(=O)c3ccccc3)c2O[C@H]1CN(C)C(=O)NC1CCCCC1	3	1	1.0
O=C(CCN1CCCCO1)NC1CCCc2c1cnn2-c1ccc(F)cc1F (stereo unspecified)	11	18	0.3
C=CCOC(=O)COc1ccc2c3c(c(=O)oc2c1)CCCC3	7	11	5.1
C[C@@H]1CN([C@H](C)CO)C(=O)c2cc(NC(=O)Nc3ccc(C(F)(F)F)cc3)ccc2O[C@@H](C)CCCCO[C@H]1CN(C)S(=O)(=O)c1cn(C)cn1	-2	-4	2.9
CN(C)C(=O)c1cccc(-c2ccc(C3[C@H]4CNC[C@@H]3N4C(=O)Nc3cc(F)ccc3F)cc2)c1 (stereo partly specified)	8&9	7&28	4.4&2.1
COc1ccc(S(=O)(=O)Nc2ccc3c(c2)C(=O)N([C@@H](C)CO)C[C@H](C)[C@@H](CN(C)Cc2ccccc2)O3)cc1	-2	2	1.0
C[C@H]1CN([C@@H](C)CO)C(=O)Cc2cc(NS(=O)(=O)c3ccc(F)cc3)ccc2O[C@H]1CN(C)Cc1ccc(C(F)(F)F)cc1	0	-8	-0.4
C[C@H](CO)N1C[C@H](C)[C@H](CN(C)S(=O)(=O)c2cn(C)cn2)OCCCC[C@H](C)Oc2ccc(NC(=O)Cc3ccccc3)cc2C1=O	-2	4	-0.9
CC(C)C#Cc1cnc2c(c1)C(=O)N([C@@H](C)CO)C[C@H](C)[C@H](CN(C)Cc1ccccn1)O2	4	9	-2.3
C[C@@H]1CN([C@@H](C)CO)C(=O)c2ccccc2-c2ccccc2CO[C@@H]1CN(C)S(=O)(=O)c1cccs1	0	2	0.5

Part of the list above, with each value named:
> C[C@H]1CN([C@@H](C)CO)C(=O)c2cc(NC(=O)C3CC3)ccc2O[C@H]1CN(C)S(=O)(=O)c1ccc(F)cc1
  Ecoli rRNA inh: 1
  Ecoli rRNA inh OD600: 1
  Ecoli rRNA inh RFP: 3.5
> C[C@@H](NC(=O)[C@H]1[C@H](CO)[C@H]2Cn3c(cccc3=O)[C@@H]1N2C(=O)C1CCC1)c1ccccc1
  Ecoli rRNA inh: -1
  Ecoli rRNA inh OD600: 5
  Ecoli rRNA inh RFP: -1.3

New compounds follow.
Structure	Ecoli rRNA inh	Ecoli rRNA inh OD600	Ecoli rRNA inh RFP
COc1ccc(CNC(=O)COC(=O)c2c(NC(C)=O)sc(C)c2C)cc1OC	4	11	0.5
COc1ccc(-c2ccc(C3[C@@H]4CN(Cc5ccccn5)C[C@H]3N4)cc2)cc1 (stereo partly specified)	-7&-5	-22&-9	27&-0.5
COc1ccc(S(=O)(=O)N(C)C[C@H]2OCCCC[C@@H](C)Oc3ccc(NC(=O)c4ccncc4)cc3C(=O)N([C@H](C)CO)C[C@@H]2C)cc1	-1	-2	1.7
COC(=O)C1=C(C)N(C)C(=NCc2ccccc2)NC1CCc1ccccc1 (stereo unspecified)	15	11	4.7
O=C(C1CC1)N1CC(=O)N2[C@H](C1)[C@H](c1ccc(-c3ccccc3F)cc1)[C@@H]2CO	-1	1	2.0
C[C@@H](NC(=O)[C@@H]1CCCN1C(=O)OC(C)(C)C)c1ccccc1	6	9	-1.9
C[C@@H]1CCCCO[C@H](CN(C)C(=O)Cc2ccccc2)[C@H](C)CN([C@@H](C)CO)C(=O)c2cc(NC(=O)c3ccncc3)ccc2O1	-5	-6	-2.0
CCOC(=O)[C@]12CCC=C1N(Cc1ccc3c(c1)OCO3)C(=O)[C@H](CC(=O)NCc1cccs1)C2	-25	-44	3.3
COc1ccc(NC(=O)Nc2ccc3c(c2)C(=O)N([C@@H](C)CO)C[C@@H](C)[C@H](CN(C)Cc2ccc(C(=O)O)cc2)OCCCC[C@H](C)O3)cc1	0	1	-0.9
C[C@@H]1CN([C@H](C)CO)C(=O)c2cc(NC(=O)NC3CCCCC3)ccc2O[C@@H](C)CCCCO[C@H]1CN(C)S(=O)(=O)c1cn(C)cn1	0	-4	-0.5
C[C@@H]1CN([C@@H](C)CO)C(=O)CCCn2cc(nn2)CO[C@H]1CN(C)Cc1ccc2c(c1)OCCO2	2	0	-1.8
CC(C)NC(=O)Nc1cccc2c1O[C@@H](CN(C)S(=O)(=O)c1ccc(F)cc1)[C@@H](C)CN([C@@H](C)CO)C2=O	-6	-9	-1.0

Screening data as filed in PubChem BioAssay.
